NPYLR7 agonist: agonists of mosquito NPYLR7 receptor, primary screen, cell-based, Aedes aegypti, calcium fluorescence, mosquito biting behavior; HEK293T NPYLR7/Galpha15, GCaMP6s calcium fluorescence; activation, % at 10 µM; 270,000 compounds, 0.15% hits; AID 1259423, 2018; in the data active = activation above about 40%;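 also: 0% = vehicle and 100% = reference agonist at the receptor; some compounds past the cut are filed as inactive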
NPYLR7 agonist max-min: also measured in NPYLR7 agonist; calls as there; activation, %; measured here: Max-Min RFU normalised activation; some inactives read as strong as hits;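 span of the calcium signal over five minutes; 0% = vehicle and 100% = native peptide agonist; compound fluorescence can raise it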
Numbers without * were called inactive. A portion of the library, so the mix of outcomes need not match the whole.

| Compound | NPYLR7 agonist | NPYLR7 agonist max-min |
| --- | --- | --- |
| COCCCNCC(=O)N(Cc1ccc2c(c1)OCO2)Cc1cccs1 | -12 | -9 |
| COc1ccc2nc(-c3cccc(NC(=O)C(C)Oc4ccc5c(c4)OCO5)c3)cn2n1 (stereo unspecified) | -1 | -1 |
| CC(C(=O)Nc1ccc(N2CCOCC2)cc1)N(C)Cc1cscn1 (stereo unspecified) | 7 | 5 |
| CC(Sc1nnc(-c2ccc[nH]2)o1)C(=O)N(C)Cc1ccccc1 (stereo unspecified) | 7 | 15 |
| COc1ccc(CCn2c(C3CC3)n[nH]c2=O)cc1 | 5 | 3 |
| CCOc1ccccc1NC(=O)CSc1nc(=O)n2ccccc2n1 | 2 | 0 |
| C=CCN(Cc1nc2sc(C(=O)OC(C)C)c(C)c2c(=O)[nH]1)CC(O)c1ccccc1 (stereo unspecified) | 12 | 11 |
| O=C(NNS(=O)(=O)c1ccccc1C(F)(F)F)c1csc(N2CCOCC2)n1 | 14 | 11 |
| CC(NC(=O)C1Cc2cc(Cl)ccc2O1)c1ccc(S(C)(=O)=O)cc1 (stereo unspecified) | -1 | -3 |
| CCOC(=O)c1c(CS(=O)(=O)c2ccccc2)n(C)c2cc(Br)c(O)cc12 | -2 | -1 |
| COc1ccccc1CCC(=O)N1CCc2cc(S(=O)(=O)N(C)C)ccc21 | 2 | 7 |
| Cc1cc2c(cc1CN1CCc3[nH]cnc3C1c1ccsc1)OCO2 (stereo unspecified) | -2 | -6 |
| Cc1cc(C(=O)N2CCN3CCCC3C2)c2c(-c3ccc4c(c3)OCO4)noc2n1 (stereo unspecified) | 2 | 41 |
| CCCCN(CC(=O)N(CCc1c[nH]c2ccccc12)Cc1ccc(C(C)(C)C)cc1)C(=O)c1ccccc1C | 11 | -1 |
| C=CCOc1ccccc1C1CC(=O)Nc2c1c(C)nn2-c1ccc(Cl)nn1 (stereo unspecified) | -2 | -3 |
| COc1cccc(NC(=O)CCC2CCN(Cc3cnc(SC)nc3)CC2)c1 | 5 | 1 |
| O=C(O)C1CC(=O)N(c2ccn[nH]2)C1 (stereo unspecified) | -2 | -4 |
| O=C1C(Nc2ccccc2)=C(N2CCOCC2)C(=O)c2ccccc21 | 1 | 8 |
| CN1CCN(C(=O)c2ccc3c(c2)nnn3C)CC1=O | 6 | 3 |
| Cn1nc(NC(=O)c2ccc(F)c(F)c2)c2c1NC(=O)CC2c1ccccc1 (stereo unspecified) | 8 | 8 |
| Cc1ccc(-c2ccccc2[C@@H]2C[C@H]3CN(C)C(=O)[C@]34CCCN24)o1 | -4 | 3 |
| CCOc1ccc(C(=O)Nc2cccc(-c3nc4cc(C)ccc4o3)c2C)cc1 | -3 | -8 |
| O=C(NCc1ccc(Cn2ccnc2)cc1)c1cc2c(cc1O)OCO2 | 4 | 0 |
| COCCn1cc(C(=O)NCC(C)C)c2nn(-c3ccccc3)c(=O)c-2c1 | 3 | 1 |
| CC1(C)CN(c2ccc(S(N)(=O)=O)cc2S(C)(=O)=O)CCO1 | -4 | -5 |
| CC(C)(CO)CNC(=O)CC(c1ccccc1)c1ccc(F)cc1 (stereo unspecified) | -5 | -12 |
| Cc1ccc(NC(=O)/C=C/c2ccc(NS(C)(=O)=O)cc2)nc1 | -5 | -6 |
| CC(C)(C)c1ccc(S(=O)(=O)NC(=O)C2(C)CCN2C(=O)CC2CCCC2)cc1 (stereo unspecified) | -3 | -9 |
| COC(=O)c1cnn2c1NCN(C1CCCCC1)C2 | 2 | 2 |
| Nc1ncnc2nc3ccccc3n12 | -9 | -16 |
| CCN1CCCC1CNc1ccc(S(C)(=O)=O)cc1[N+](=O)[O-] (stereo unspecified) | 9 | 14 |
| C[C@@H]1[C@H]2[C@H](O[C@@H]3O[C@H](CO)[C@@H](O)[C@H](O)[C@H]3O)OC=C(C(=O)O)[C@H]2C[C@@H]1O | -4 | -8 |
| CCOc1ccc(C(=O)N2CCCC(CN(C)C(=O)OC(C)(C)C)C2)cn1 (stereo unspecified) | 13 | 7 |
| CC(C)c1nc(CN(C)C(=O)C2CCCN2C(=O)C2CCCCC2)cs1 (stereo unspecified) | 0 | -6 |
| COc1cc(C2CNCC2C(=O)NCc2ccc(F)cc2)cc(OC)c1OC (stereo unspecified) | 25 | 13 |
| CCOC(=O)C1=C(O)/C(=C\c2ccccc2)SC1=Nc1ccc(OC)cc1 | 10 | 12 |
| Cn1c(=O)[nH]c(=O)c2c1nc(N=Nc1c(O)[nH]c3ccccc13)n2CCCc1ccccc1 | 1 | 6 |
| Cn1cc(S(=O)(=O)Oc2ccc(C#N)cc2Cl)c(=O)n(C)c1=O | -1 | 19 |
| COc1ccc(-n2ncc(Oc3cccc(OC)c3)c(Nc3ccc(C(=O)NCCc4ccccn4)cc3)c2=O)cc1 | -4 | -2 |
| O=[N+]([O-])c1ccc(-c2nc(N=Nc3ccc(O)cc3)n[nH]2)cc1 | -2 | -8 |
| COCCN(CC(=O)N(CCc1c[nH]c2ccccc12)Cc1ccc(OC)c(OC)c1)C(=O)c1ccc(Cl)cc1 | -9 | -3 |
| NCc1cn(CC2CCN(C(=O)NCc3ccccc3F)CC2)nn1 | 22 | 5 |
| O=C(NCc1nnc2n1CCC2)N1CCC1c1ccc(Cl)cc1 (stereo unspecified) | 6 | 3 |
| COC(=O)C(C)(C)C1c2c(ccc3ccccc23)OC(=O)C1C(=O)NCc1ccccc1 (stereo unspecified) | -3 | -4 |
| CSc1ccc(C(=O)CCC(=O)Nc2ccc(OC(F)(F)F)cc2)cc1 | -9 | -13 |
| O=C(Nc1nnc2ccccn12)c1ccc(Br)cc1Cl | 8 | 6 |
| CCCOc1ccc(C(=O)Nc2ccc(Cl)c(-c3nc4ccccc4o3)c2)cc1 | 9 | 8 |
| Clc1nsnc1Oc1ccc(Br)cc1 | 13 | 6 |
| CC(OC(=O)c1cc(=O)c2cc(Cl)ccc2o1)C(=O)N1c2ccccc2CC1C (stereo unspecified) | 3 | 0 |
| COCCN1C(=O)N(C2Cc3ccccc3C2)C(=O)C12CCN(Cc1ccc3nsnc3c1)CC2 | 13 | 1 |

Following part.
| Compound | NPYLR7 agonist | NPYLR7 agonist max-min |
| --- | --- | --- |
| CC1C(=O)N2CCCc3cc(S(=O)(=O)N(C)Cc4ccccc4)cc1c32 (stereo unspecified) | 13 | 7 |
| Cc1ccc(C(=O)Nc2nc3c(s2)CCC3C(=O)NCc2ccco2)cc1 (stereo unspecified) | 9 | -1 |
| CC(/C=C/c1ccc(N(C)C)cc1)=N/N=C(N)SC1CC(=O)N(c2ccc(C(=O)O)cc2)C1=O (stereo unspecified) | -3 | -4 |
| C[C@@H]1CN(C(=O)c2cc(-c3cccnc3)n[nH]2)C[C@H](C)O1 | -9 | -11 |
| CCCC(=O)OCC(O)CN(Cc1cccn1Cc1ccc(F)cc1)CC1CCCCC1 (stereo unspecified) | -2 | 4 |
| Cc1cccc(C)c1OCCNC(=O)c1ccc(S(=O)(=O)N(C)C)o1 | 14 | 9 |
| O=C(NCCc1ccccn1)c1nn(-c2ccc(F)cc2)c(=O)n(Cc2ccccc2Cl)c1=O | -8 | -7 |
| Cc1ccc2nc(-c3ccccc3Cl)c(NC(C)(C)C)n2c1 | -12 | -8 |
| Fc1ccc(Cn2c(-c3cccnc3)n[nH]c2=S)cc1 | -8 | -13 |
| CCc1cccc(NC(=O)Cn2nc(-c3ccco3)c3sc(N4CCCC4)nc3c2=O)c1 | 2 | -1 |
| CS(=O)(=O)c1cccc(NC(=O)C2=Cc3cc(Cl)ccc3OC2)c1 | -1 | -3 |
| CC(Sc1nnc(-c2cccs2)o1)C(=O)NC1CCCCC1 (stereo unspecified) | 7 | 1 |
| Cc1ccc(-c2nc3c(N4CCOCC4)nccc3[nH]2)cc1 | -5 | -10 |
| CSc1nnc2c(n1)OC(c1ccccc1OCC(=O)O)Nc1ccccc1-2 (stereo unspecified) | -8 | -9 |
| CCCC(=O)N1CCC1(C)C(=O)NS(=O)(=O)c1ccc(C)cn1 (stereo unspecified) | 1 | -1 |
| O=C(CC1CCC(=O)N1)NCc1cccnc1Oc1ccccc1 (stereo unspecified) | 5 | 1 |
| CCOc1ccc2c(c1)CC(C(=O)Nc1nc3ncccn3n1)CO2 (stereo unspecified) | 6 | 1 |
| CC(NC(=O)c1ccc(NS(=O)(=O)c2cccs2)cc1)C1CC2CCC1C2 (stereo unspecified) | 1 | -2 |
| CC(C)CCNCc1c(-c2ccccc2)noc1N(C)C(C)C | 12 | 19 |
| Cc1cc(C=C2C(=O)NC(=S)NC2=O)c(C)n1CC(F)(F)F | 7 | 12 |
| CCOC(=O)c1cc(Cc2ccccc2)sc1NC(=O)c1cc(OC)c(OC)c(OC)c1 | 4 | 13 |
| CC(=O)Nc1cc(-c2nc3ccc(C)cc3o2)ccc1Cl | 24 | 26 |
| Cc1ccc(C)c(CN2CCN(c3nc4c(c(=O)[nH]c(=O)n4C)n3Cc3ccccc3)CC2)c1 | 12 | 11 |
| Cc1ccc2c(c1)c(-c1ccccc1)c(-c1ccccc1)n2CC(O)CN1C(=O)c2ccccc2S1(=O)=O (stereo unspecified) | -8 | -14 |
| O=C(CNC(=O)c1cccc(Cl)c1)N=Nc1c(O)n(CCc2ccccc2)c2ccccc12 | -3 | -6 |

Following part:
Below each compound – NPYLR7 agonist, NPYLR7 agonist max-min
> Cn1cc(C(=O)O)cn1
    2, 1
> OC(Cc1ccccc1)CN(Cc1ccccc1)CC1CC(c2ccccc2F)=NO1 (stereo unspecified)
    -2, 4
> Cc1cc(C(=O)Nc2cnc3n2CCCC3)n[nH]1
    -3, -4
> CCOC(=O)c1cc(-c2ccc(N3CCN(C(=O)[C@@H]4C[C@H]4c4ccccc4)CC3)cc2)n(-c2ccccc2OC)n1
    20, 8
> O=C(NCCNc1nc(-c2cccc(Br)c2)nc2ccccc12)C1CCCC1
    11, 17
> CC[C@@]1(C(=O)OC)N[C@H](c2nccn2CCOC)[C@@H]2C(=O)N(C)C(=O)[C@@H]21
    16, 8
> Cn1ncc2c1ncn1nc(Cc3ccccc3)nc21
    -4, -2
> COc1c2ccoc2c(OC)c2oc(=O)ccc12
    -8, -14
> CCOc1ccc(OCCCOc2cccc(C)c2C)cc1
    0, 25
> CC(=O)Nc1ccc(NC(=O)C2=CN3CCN(Cc4cscn4)C(=O)N=C3O2)cc1
    10, 10
> Cc1nn(C)c(C)c1NC(=S)NCc1cccs1
    7, 15
> CCc1ccc(CC)c(S(N)(=O)=O)c1
    -6, -6
> CC(C)N(CC1CCC(=O)N1)C(=O)c1cn(Cc2ccccc2Cl)nn1 (stereo unspecified)
    0, -5
> Cc1noc(C)c1NC(=O)NCCOc1ccccc1C(F)(F)F
    11, 7
> Cc1ccc(CNC(=O)Cn2nc(-c3ccc(F)cc3)c3sc(C)nc3c2=O)cc1
    1, -2
> N#Cc1cc(N)c(Nc2ccccc2N)cc1C#N
    -9, -16
> O=C(NN=Cc1ccc([N+](=O)[O-])s1)C1CCCCC1
    1, -2
> CCCCC(=O)Nc1c(-c2cccc(Cl)c2)nc2ccc(C)cn12
    -3, -3
> CCS(=O)(=O)N1CCN(c2ccc(Nc3ccc(C)cc3)nn2)CC1
    -1, -4
> CC(C)SC(NC(=O)OCc1ccccc1)C(=O)NCCc1ccccc1 (stereo unspecified)
    -3, -6
> CCOC(=O)c1sc(NC(=O)C(C)C)nc1C
    12, 4
> O=c1[nH]c(O)c(N=Nc2cccnc2)c(=O)[nH]1
    2, 2
> CCOC(=O)C1CCCN(C(=O)c2coc(CN(Cc3ccc(F)cc3)Cc3sccc3C)n2)C1 (stereo unspecified)
    18, 18
> Cc1ccc(N2CCC(N(C)Cc3snnc3C)CC2)cc1
    31, 27
> O=C(O)CCC(=O)N1CCN(C(=O)c2ccco2)CC1
    9, 7
> CCOCCCNc1nc2c(c(=O)[nH]c(=O)n2C)n1CCC(C)C
    -8, -8
> COCCn1c(SCC(C)C)nc2c1c(=O)[nH]c(=O)n2C
    6, 2
> CCc1ccccc1N=C1NN=C(c2ccc3c(c2)C(C)C(=O)N3)CS1 (stereo unspecified)
    2, 9
> O=C(O)CN1C(=O)/C(=C\c2ccc(Br)cc2)SC1=S
    -3, -6
> COc1ccccc1NC(=O)C(C)Nc1ccc2c(c1)OCO2 (stereo unspecified)
    13, 5
> CCCc1noc(CNc2cc(NC(C)=O)ccc2Cl)n1
    -1, -5
> COc1ccccc1N1CCN(C(=O)c2ccc3c(c2)OCO3)C(C)C1=O (stereo unspecified)
    18, 20
> CC1=NC2=C(C(=O)CCC2)C(c2ccc(OCc3ccccc3)cc2)C1C#N (stereo unspecified)
    13, 12
> Cc1cc(NC(=O)CCNC(=O)Cc2ccccc2)cnc1Cl
    12, 11
> CC(Cn1cnc2sc3c(c2c1=O)CCNC3)Oc1cccnc1 (stereo unspecified)
    0, -2
> CC(C)Cc1ncc2c(n1)CN(C(=O)C1COC(=O)N1)C2 (stereo unspecified)
    -5, -8
> CCC(O)CN1CCN(C(=O)Cn2nnc3ccccc32)CC1 (stereo unspecified)
    7, 3
> CCN1CCN(c2cc(C(F)(F)F)nc(SCc3ccc(C(=O)NCC4CCCO4)cc3)n2)CC1 (stereo unspecified)
    2, 1
> O=C(NCCn1cccn1)c1cnc(-c2ccc(Cl)s2)s1
    0, 0
> COCC(=O)N1CCC(Oc2ccccc2C(=O)N2CCN(C)C(=O)[C@@H]2C)CC1
    0, -6
